Bst PK mod: pyruvate kinase (B. stearothermophilus) modulation; partly purified Bacillus stearothermophilus pyruvate kinase, luminescence ATP production; ribose 5-phosphate activator present at AC10; Potency, µM; actives 1.2% (n = 51,000); AID 361; in the data active means potency below about 11 µM; inconclusive means mostly about 12 µM to 25 µM; inactive means weaker than that;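 the screen sought inhibitors and activators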;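 also: potency is read from the fitted curve at half-maximal effect; scaled between full activation by ribose 5 phosphate and full inhibition by luteolin; about four in five hits inhibit and the cells do not say which; series up to 57 µM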
YjeE inh: displaces an ADP probe from E. coli YjeE (TsaE). purified YjeE, fluorescence polarisation of a bound ADP probe. AID 605. actives 0.05% (n = 71,000). Potency, µM; active = well fitted falling curve; inconclusive = weaker or top-dose-only fall, or a rising curve; inactive = flat or poorly fitted curve;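 also: top concentration of the series not given in the record; excess ADP was the control for the full effect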
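Purified YjeE (10 uM) with BODIPY Texas Red-labeled ADP probe (2 uM); compounds pin-transferred, 15 min at room temperature. Binding inhibition read as decreased fluorescence polarization; ADP titration as control.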
* marks the source's active call; other numbers are inactive results; i = inactive; ? = inconclusive; · = no result given. The list is partial (hit frequency here may not be typical).

mol	Bst PK mod	YjeE inh
O=C(NCc1ccc2c(c1)OCO2)c1cccc(S(=O)(=O)N2CCCCC2)c1	>57	i
Cc1cc2c(N=O)c(NO)ccc2[nH]1	·	i
Cc1ccccc1C(=O)Nc1ccc(Br)c(C)n1	>57	i
COCC(C)NC(=O)CCS(=O)(=O)c1nc(-c2ccc(OC)cc2)cc(C(F)(F)F)n1 (stereo not drawn)	·	i
CC(C)N(CCc1ccncc1)C(=O)Nc1ccc(Cl)c(Cl)c1	·	i
NC(=O)c1cccc(S(=O)(=O)N2CCCCC2)c1	·	i
Cc1nn(C(C)C(=O)N2CCc3ccccc3C2)c(=O)c2cc3occc3n12 (stereo not drawn)	?	i
Cc1ccc(NC(=O)Cn2nnc(C(=O)NCc3cccs3)c2N)cc1	>57	i
CC(C)CCNC(=O)CN(C(=O)CCC(=O)Nc1ccccn1)c1ccc2c(c1)OCO2	>57	i
CCOc1ccccc1N(C(=O)Cn1nnnc1-c1ccc(C)o1)C(CC)C(=O)NC(C)(C)C (stereo not drawn)	>57	i
O=C(COC(=O)Cc1ccc(S(=O)(=O)N2CCCCC2)s1)Nc1ccc2c(c1)OCO2	>57	i
CCc1ccc(CNCc2cccnc2)cc1	>57	i
CCCCOc1ccccc1C1C(C(N)=O)=C(C)Nc2nnnn21 (stereo not drawn)	>57	i
Fc1ccc(CSc2ncnc3c2oc2ccccc23)cc1	>57	i
CCCCNC(=O)N(C)c1nncnc1C(=O)NC	>26	·
Cc1nnc2n(-c3ccccc3)c(=O)c3c4c(sc3n12)CCCC4	>26	·
CCCCC(=O)NC1(C(F)(F)F)C(=O)Nc2c1c(=O)n(C)c(=O)n2C (stereo not drawn)	>57	i
CCOC(=O)CN1CC23C=CC(O2)C(C(=O)NCc2ccccc2OC)C3C1=O (stereo not drawn)	·	i
COc1ccc2nc(SCc3cnc(C)nc3N)[nH]c2c1	>57	i
COc1ccc2nccc(SCC(=O)O)c2c1	·	i
CC(O)Cc1nsc(NC(=O)c2cccs2)n1 (stereo not drawn)	·	i
CSc1nc2c(ccc3ccccc32)o1	>57	i
Cc1nc(=O)c(-c2ccccc2)c(C)n1-c1ccc(S(N)(=O)=O)cc1	>26	·
N#Cc1cc(Oc2cccc3cccnc23)c(-n2nnc3ccccc32)cc1C#N	>26	·
COc1ccc(C(=O)N(Cc2nc(-c3ccc(C)cc3)no2)C2CCCCC2)cc1OC	>57	i
CCOc1ccc(-c2cc(CCCC(=O)N3CCN(c4ccc(OC)cc4)CC3)no2)cc1	·	i
O=C(c1ccc(S(=O)(=O)N2CCC(c3nc4ccccc4[nH]3)CC2)cc1)N1CCOCC1	>57	i
N#CCCn1c(=O)c(-c2ccc(Cl)cc2)nc2cnc(Nc3ccccc3)nc21	·	i
O=C(CC(SCc1ccco1)c1ccc(O)cc1)c1cccs1 (stereo not drawn)	>57	i
O=C(NCCCCC(NC(=O)C1CCCCC1)C(=O)O)c1ccccc1 (stereo not drawn)	>57	i
Cc1cc(=O)n2[nH]c(-c3ccc(F)cc3)nc2n1	i	i
CCn1c(SCC(=O)N2CCCC2)nnc1-c1ccc(S(=O)(=O)N2CCCCCC2)cc1	>57	i
Cc1cc(C)n(-c2ccc(Cl)c(C(=O)Nc3ccc(-c4nnc5n4CCCCC5)cc3)n2)n1	>57	i
CN(C(=O)COC(=O)c1ccc2c(c1)OCO2)C1CCS(=O)(=O)C1 (stereo not drawn)	>57	i
CC(=O)C1=C(C)NC(SCSc2ccccc2)=C(C#N)C1c1cccnc1 (stereo not drawn)	·	i
Cn1c(=O)cc(SCC(=O)NCCCN2CCOCC2)c2ccccc21	>57	i
CCOc1ccccc1C1CC(c2ccc(F)cc2)Nc2nc(N)nn21 (stereo not drawn)	·	i
Cc1ccc2cc3cc(C(=O)NCc4ccco4)oc3nc2c1	>57	i
COc1ccc(N2CC(O)=C(c3nc4ccccc4s3)C2=N)c(OC)c1	>11	i
CCOC(=O)c1ccccc1NC(=O)c1cncc(Br)c1	>57	i
CC1=C(C(=O)OC(C)C)C(c2cccs2)N2C(=O)C(C)SC2=N1 (stereo not drawn)	>57	i
Nc1ncnc2c1ncn2[C@@H]1O[C@H](COP(=O)(O)O)[C@@H](O)[C@@H]1O	·	i
O=C(CN1CCN(Cc2ccccc2)CC1)N1CCCc2c1c(=O)oc1ccc(O)cc21	>57	i
O=C(NCCN1CCOCC1)c1cc(-c2ccc(Br)cc2)on1	>11	i
Cc1cc(NS(=O)(=O)c2ccc(NC(=O)C(C)Oc3ccc4c(C)cc(=O)oc4c3)cc2)no1 (stereo not drawn)	>57	i
O=C(c1cnccn1)N1CCC[C@@]2(CCN(c3ccncc3)C2)C1	·	i
COC(=O)C1=C(C)NC2=C(C(=O)CCC2)C1c1ccsc1 (stereo not drawn)	·	i
C/C(=C\c1ccco1)C1Nc2cccc3cccc(c23)N1	·	i
O=C(c1ccco1)N(c1ccccn1)c1ccccn1	·	i
O=C(NC1CCN(Cc2ccccc2)CC1)C1CCN(S(=O)(=O)c2cccc3cccnc23)CC1	·	i

Following part
mol	Bst PK mod	YjeE inh
O=C(NCCCNC(=O)c1ccccn1)c1ccccn1	>57	i
CC(=O)C1=C(C)NC(=O)NC1c1ccc(OC2CCCC2)cc1 (stereo not drawn)	>57	i
CC(C)c1ccc(CNc2ccc(N3CCOCC3)cc2)cc1	>57	i
CCOC(=O)Cc1csc(NC(=O)c2ccc(C)o2)n1	>57	i
COc1ccc2[nH]c3c(=O)n(CCCCC(=O)N4CCCC4)c(=S)[nH]c3c2c1	>57	i
CN1CCc2c(cc(O)c(O)c2Cl)[C@H](c2cccc(Cl)c2)C1	·	i
COc1ccc(-c2nc(C(N)=O)c3[nH]c(=O)n(-c4cccc(Cl)c4)c3n2)cc1OC	>57	i
COc1cccc(-c2nc(CSCC(=O)N3CCc4ccccc43)c(C)o2)c1	>57	i
CCC(C)NC(=O)C1CCN(c2nc(C)cc(C)n2)CC1 (stereo not drawn)	>57	i
Cc1cc(C)n2nc(SCC(=O)N(C)c3ccccc3)nc2n1	>57	i
COc1ccccc1N1CCN(C(c2cccs2)c2nnnn2C2CCCC2)CC1 (stereo not drawn)	>57	i
O=C(c1cccc(F)c1)N1CCC2(CC1)CN(c1ccccc1)C2	·	i
CC1=C(C(=O)NCc2ccccn2)C2(CCC(C)CC2)OC1=O (stereo not drawn)	·	i
COc1ccc(OC)c(NC(=O)C2CCN(S(C)(=O)=O)CC2)c1	>57	i
Cc1ccc(S(=O)c2ccc(C)cc2)cc1	·	i
CC(NS(C)(=O)=O)C(c1cccs1)N1CCN(c2ccccc2F)CC1 (stereo not drawn)	>57	i
COC(=O)Cn1cnc2sc(C)c(S(=O)(=O)N3CCC(C)CC3)c2c1=O	>57	i
O=C(c1noc2c1CCc1ccccc1-2)N1CCc2ccccc2C1	>57	i
CCOC(=O)c1c(NC(=O)CSc2nnnn2-c2ccc3c(c2)OCCO3)sc(C)c1C	>57	i
CCN(CC)S(=O)(=O)c1ccc2oc(C(=O)NCC3COc4ccccc4O3)c(C)c2c1 (stereo not drawn)	>57	i
CC1=C(C)C(=O)N(c2ccccn2)C1=O	>57	i
COc1ccc(-n2c(=O)[nH]cc(C(=O)Nc3ccc4c(c3)OCCO4)c2=O)cc1	>57	i
Cc1cc(C)nc(NS(=O)(=O)c2ccc(NC(=O)CCN3C(=O)c4ccccc4C3=O)cc2)n1	·	i
Cc1cc(-c2nnc(-c3cc4ccccc4oc3=O)o2)c(C)n1-c1ccccc1	>57	i
COC(=O)C1CCN(c2cc(=O)n(C3CCCCC3)c(=O)[nH]2)CC1	·	i
COc1ccc(S(=O)(=O)Nc2ccc(S(=O)(=O)N3CCOCC3)cc2)cc1	·	i
CCN(CC(=O)Nc1c(C(=O)OC)[nH]c2ccccc12)c1ccc2c(c1)OCO2	>57	i
COc1ccc(-c2cc(C(=O)O)c(C)o2)cc1OC	·	i
O=C(Cn1c(=O)n2ncnc2c2c3c(sc21)CCCC3)c1ccccc1	>57	i
Cc1cc2c(cc1C)NC(c1ccccn1)C1=C(CC(C)(C)CC1=O)N2 (stereo not drawn)	>57	i
N[C@@H](Cc1c[nH]c2ccc([N+](=O)[O-])cc12)C(=O)O	·	i
Cc1ccc(CCNC(=O)C2CCN(S(=O)(=O)c3ccc4c(c3)CCC(=O)N4)CC2)cc1	·	i
CN1C(=S)SC(/[N+]([O-])=C\c2ccco2)C1(C)C (stereo not drawn)	>57	i
CCc1cccc(Nc2cc(C)nc3nc(C)nn23)c1	·	i
CN1C(=O)c2ccccc2C(C(=O)NCC2CCCO2)C1c1c[nH]c2ccccc12 (stereo not drawn)	>57	i
COc1cc(C(=O)OCc2cc3ccccc3[nH]c2=O)cc(OC)c1OC	>57	i
CCOC(=O)c1cc(-c2nnc(-c3cc(OC)c(OC)c(OC)c3)o2)c(C)nc1C	>57	i
COc1ccccc1N1CCN(C(=O)c2c(-c3ccccc3Cl)noc2C)CC1	>57	i
Clc1ccccc1Nc1c2c(nc3ncnn13)CCC2	>57	i
CCOc1ccc2[nH]c(=O)c(CN(Cc3cccs3)C(CC)c3nnnn3C(C)(C)CC)cc2c1 (stereo not drawn)	>57	i
c1ccc(C2(Cn3ccc4ccccc43)OCCO2)cc1	·	i
COC(=O)CSc1nc(C)c(C(C)=O)cc1C#N	>26	·
Cc1cc(C)n2nc(CC(=O)NC3CCCC(C)C3C)nc2n1 (stereo not drawn)	>57	i
Clc1ccc(OCCN2CCN(c3ncnc4sccc34)CC2)cc1	>57	i
O=C(NC1CCCCC1)C1CN(S(=O)(=O)c2ccccc2)CCN1S(=O)(=O)c1ccccc1 (stereo not drawn)	>57	i
CCC(=O)Nc1cccc(-c2nc3ccccc3c(=O)o2)c1	?	i
Cc1ccccc1N(CC(N)=O)S(C)(=O)=O	·	i
Cc1cc(C(=O)NCCCN2CCOCC2)n(-c2ccccc2)n1	·	i
O=C(Nc1cccc(C(F)(F)F)c1)c1cc(-c2cccs2)on1	>57	i
O=C(Nc1ccccc1C(F)(F)F)c1cccnc1	>57	i

(cont.)
mol	Bst PK mod	YjeE inh
CCOC(=O)c1[nH]c2ccc(Br)cc2c1NC(=O)CCN1CCN(C(=O)OCC)CC1	>26	·
Cn1cnc2cc(NC(=O)c3ccco3)ccc21	·	i
CCOC(=O)C(C)Sc1nnc(Cc2cc(=O)[nH]c(=O)[nH]2)n1-c1ccc(Cl)cc1 (stereo not drawn)	·	i
COc1cccc(C2CC(c3ccc(C)cc3)Nc3nc(N)nn32)c1 (stereo not drawn)	·	i
CC(C)N(C)C	·	i
CCCN(CCC)S(=O)(=O)c1cc(Br)cc2c1N(C(=O)CC)CC2	>57	i
CCOC(=O)C1CCCN(CC(=O)Nc2c(C(=O)OC)[nH]c3ccc(Br)cc23)C1 (stereo not drawn)	>57	i
O=S(=O)(NCC(c1cccnc1)N1CCN(Cc2ccccc2)CC1)c1ccccc1 (stereo not drawn)	·	i
C(=N\c1c(-c2ccccc2)nc2n1CCS2)/c1ccccc1	·	i
Cn1c(=O)cc(SCC(=O)NCC2CCCO2)c2ccc(Cl)cc21 (stereo not drawn)	>57	i
O=C(Cc1cscn1)c1ccc(O)cc1O	>26	·
O=C1C(c2ccc(F)cc2)N(C2CCCCC2)C(=O)CN1C1CCCC1 (stereo not drawn)	>57	i
CC(C)C[C@H](NC(=O)NCc1ccc(Cl)cc1)C(=O)O	>57	i
CC1Cc2ccccc2N1C(=O)COc1cccc(-n2cnnn2)c1 (stereo not drawn)	>57	i
Cc1nonc1NC(=O)c1ccc(Cl)c(S(=O)(=O)N2CCCCC2)c1	>57	i
CCCCN(CC)CCCNC(=O)c1cc2cc3ccc(OC)cc3nc2o1	i	i
COc1cc(NC(=O)C2CC(c3cccc(OC)c3OC)=NO2)cc(OC)c1OC (stereo not drawn)	>57	i
CCOc1ccccc1-c1nc2c([nH]1)c(=O)n(C)c(=O)n2C	>57	i
Cc1ccc(NC(=O)c2cc(N(C)C)ccc2[P+](=O)O)cc1	>57	i
COCc1cc(C)nc(Nc2ccc(C)c(C)c2)c1C#N	·	i
Cc1ccc(C(=O)C2=C(O)C(=O)N(CCCN3CCOCC3)C23C(=O)N(C)c2ccccc23)o1 (stereo not drawn)	>57	i
N#Cc1c(-c2ccccc2Cl)cc(C2CC2)nc1N	>26	·
COc1ccc2oc(C(=O)OCC(=O)c3ccc4c(c3)OCCO4)c(C)c2c1	>57	i

Screening data deposited in PubChem BioAssay by National Center for Advancing Translational Sciences (NCATS).
